ClpP mod = qHTS Assay for Activators of ClpP. ATP-dependent Clp protease proteolytic subunit (Bacillus subtilis (strain 168)), P80244. purified B. subtilis ClpP, FRET peptide cleavage, 20 min. Potency, µM (series often up to 57.5 µM), without a hit: top-dose activity change, negative = active. 340,000 tested, 1.9% active. AID 651965, 2013; active = well fitted falling curve with a large enough effect; inconclusive = small, poorly fitted or top-dose-only effect; inactive = no such curve, though single readings can be large or run the other way; also: potency is read from the fitted curve at half-maximal effect; the source files actives as falling curves though it sought activators and does not explain the sign; nearly all actives have a fitted effect of over 65% in size; many hits overshoot -100%
Target sequence (P80244 whole entry, looked up): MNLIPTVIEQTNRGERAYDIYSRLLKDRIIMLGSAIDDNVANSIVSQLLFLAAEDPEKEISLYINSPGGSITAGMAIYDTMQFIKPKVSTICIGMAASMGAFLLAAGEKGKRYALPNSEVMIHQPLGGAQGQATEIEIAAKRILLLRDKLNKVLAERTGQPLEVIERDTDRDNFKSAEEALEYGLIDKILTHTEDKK
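FRET quenching reversal measured ClpP activation: 10 microg/mL B. subtilis ClpP at pH 8 with the FRET-FV decapeptide, read at 430 nm after 320 nm excitation. The 20-min minus 0-min signal was scaled between DMSO/no-enzyme wells and ADEP (5.8 microM final).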
TRPML1 blocker = blocks the human TRPML1 channel. Q9GZU1. TRPML1-inducible cells, Ca2+ dye fluorescence, FDSS; stronger effect = lower value; inhibition of EC80 agonist-evoked calcium signal. activity change, negative = inhibition, % (test concentration not listed). 390,000 tested, 0.02% active; in the data active means activity change below about -50%; inconclusive means about -30% to -50%; inactive means above about -30%;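 also: stimulus is agonist 54-4 at its EC80 concentration; % is scaled to controls: 0 for no effect and ±100 for the full control effect; compound concentration not given in the record; the text of the record puts the active cut at -80%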
Target sequence (Q9GZU1 whole entry, looked up): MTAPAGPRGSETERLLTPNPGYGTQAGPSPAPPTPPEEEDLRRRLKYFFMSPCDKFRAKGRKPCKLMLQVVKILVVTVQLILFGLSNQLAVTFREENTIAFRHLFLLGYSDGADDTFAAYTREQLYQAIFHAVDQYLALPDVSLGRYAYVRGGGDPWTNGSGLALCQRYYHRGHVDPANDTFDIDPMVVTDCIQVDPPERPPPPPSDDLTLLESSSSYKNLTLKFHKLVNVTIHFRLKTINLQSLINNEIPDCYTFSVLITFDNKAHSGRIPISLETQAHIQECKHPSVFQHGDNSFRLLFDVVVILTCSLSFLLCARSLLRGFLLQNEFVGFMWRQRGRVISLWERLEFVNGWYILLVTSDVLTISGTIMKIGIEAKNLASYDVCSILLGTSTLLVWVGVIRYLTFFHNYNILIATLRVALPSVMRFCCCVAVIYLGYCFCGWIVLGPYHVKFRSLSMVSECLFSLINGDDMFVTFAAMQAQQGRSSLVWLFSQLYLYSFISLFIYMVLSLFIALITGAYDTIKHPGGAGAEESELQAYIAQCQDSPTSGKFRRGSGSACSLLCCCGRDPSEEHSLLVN
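Tet-induced TRPML1-DL cells loaded with Ca8 no-wash calcium dye were read kinetically on FDSS. Compound addition was followed by EC80 agonist 54-4 (4 uM final); inhibition was read over 110 s.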
* marks the source's active call; other numbers are inactive results; ? = inconclusive. Only part of the results is shown; count on the stated rates, not on these rows.

SMILES | ClpP mod | TRPML1 blocker
COC(=O)c1cc2oc3ccccc3c2n1Cc1nc(-c2ccccc2C)oc1C | -12.6% | -19.7
CCOCCCn1c(=N)c(C(=O)NC(C)c2ccccc2)cc2c(=O)n3cccc(C)c3nc21 (stereo not drawn) | 3.8% | -10.6
CCOC(=O)c1c(C)oc2nc(C)nc(NCCc3ccc(SC)cc3)c12 | -4.0% | -8.5
O=C(NCCCc1nc2ccccc2n1Cc1ccc(F)cc1)C1CCCCC1 | -0.8% | -4.2
CC1(C(=O)NS(=O)(=O)Cc2cccc(Cl)c2)CCN1C(=O)CC1CCCC1 (stereo not drawn) | -0.4% | -5.0
Cc1ccc(SCCNC(=O)CN(c2ccccc2)S(=O)(=O)N(C)C)cc1 | 0.2% | 8.8
Cc1cccc(C(=O)N2CCc3cc(CNS(=O)(=O)c4ccc(Cl)s4)ccc32)c1 | -1.3% | 3.6
CS(=O)(=O)c1ncc(Cl)c(C(=O)Nc2c(C(=O)c3ccc(Cl)cc3)oc3ccccc23)n1 | -1.9% | 23.0
CCCCN(C)c1ncnc2c1cnn2-c1cccc(Cl)c1 | -11.6% | 58.3
CC(C)(C)C(=O)Nc1ccc(Cl)c(-c2nc3ccccc3[nH]2)c1 | -28.1% | -24.5
O=c1c(S(=O)(=O)c2ccccc2)cn(Cc2cccc(F)c2)c2cc(N3CCOCC3)c(F)cc12 | 28.2µM* | -10.3
COc1ccc(-n2nc(C(=O)N3CCN(c4cccc(C)c4)C(C)C3)c3c4ccccc4n(C)c3c2=O)cc1Cl (stereo not drawn) | -3.4% | 9.4
Cc1ccc(NC(=O)Cn2ccn(-c3ccccc3)c(=O)c2=O)cc1 | -7.8% | 8.3
CCN(CC)S(=O)(=O)c1ccc2c(c1)c(=O)c(C(=O)N1CCN(c3ccccc3OC)CC1)cn2C | 0.0% | -0.1
Cc1ccc(NC(=O)c2oc3ccccc3c2NC(=O)C2CCCCC2)cc1 | 3.6% | -4.6
Cc1cc(C)c(NC(=O)CSc2ccnc(=O)[nH]2)c(C)c1 | -0.8% | -20.0
CCOC(=O)c1cc(-c2ccc(C)cc2)n(CC(=O)NC2CCCCCC2)c1C | -0.9% | 21.3
COc1ccc(NCc2cc3cc4c(cc3n(CC(=O)Nc3cc(C)ccc3C)c2=O)OCCO4)cc1 | 3.2% | -5.6
Cc1cccc(-c2nc3scc(CCNS(=O)(=O)c4ccc(F)cc4C)n3n2)c1 | 1.1% | 5.7
COc1cccc(CNC(=O)c2sc3nc[nH]c(=O)c3c2C)c1 | 39.8µM* | -8.1

3 structures out of the list, ordered by SMILES length, low to high.
SMILES | ClpP mod | TRPML1 blocker
COc1cccc(CNC(=O)c2sc3nc[nH]c(=O)c3c2C)c1 | 39.8µM* | -8.1
Cc1ccc(SCCNC(=O)CN(c2ccccc2)S(=O)(=O)N(C)C)cc1 | 0.2% | 8.8
CCN(CC)S(=O)(=O)c1ccc2c(c1)c(=O)c(C(=O)N1CCN(c3ccccc3OC)CC1)cn2C | 0.0% | -0.1

Returning to the listing with the two entries that preceded the break.
SMILES | ClpP mod | TRPML1 blocker
Cc1cccc(-c2nc3scc(CCNS(=O)(=O)c4ccc(F)cc4C)n3n2)c1 | 1.1% | 5.7
COc1cccc(CNC(=O)c2sc3nc[nH]c(=O)c3c2C)c1 | 39.8µM* | -8.1
COc1ccc(NC(=O)CCNS(=O)(=O)c2ccc3c(c2)CCCC(=O)N3)cc1Cl | -18.1% | 12.6
COc1cc(OC)c(Nc2ncnc3onc(-c4cccc(Cl)c4)c23)cc1Cl | -6.6% | 13.4
Cc1ccc(NC(=O)CN2C(=O)CC(c3ccc(C)c(C)c3)=Nc3ccccc32)cc1 | -1.4% | -4.7
Cc1ccc2c(c1)cc1c(=O)n(Cc3ccc(Cl)cc3)nc(C)n12 | -29.1% | 3.6
O=C1C(c2ccc(F)cc2)N(CCc2ccccc2)C(=O)CN1C1CCCCCC1 (stereo not drawn) | 0.3% | 4.4
COc1cccc(-c2nnc3n(Cc4ccc(C)cc4)c(=O)c4ccccc4n23)c1O | 0.0% | 16.2
CCc1cccc(NC(=O)c2nc(-c3ccncc3)no2)c1 | -1.6% | 3.3
CC(=O)c1ccc(NC(=O)Cn2c3ncccc3c(=O)n2-c2ccc(C)cc2)cc1 | ? | -13.8
Cc1cc(C)cc(NC(=O)CSc2oc(-c3ccco3)nc2S(=O)(=O)c2ccc(Cl)cc2)c1 | -12.1% | 53.7
Cc1cc(C)cc(NS(=O)(=O)c2ccc3[nH]cc(C(=O)N4CCCCC4)c(=O)c3c2)c1 | ? | -0.1
CCCCCCNc1ncnc2c1sc1nc(N3CCOCC3)c3c(c12)CCCC3 | 3.9% | 2.8
COc1cccc(-n2ccnc2SCC(=O)Nc2nc3ccc(C)cc3s2)c1 | -2.6% | ?
COc1ccc(NC(=O)c2c(NC(=O)C(F)(F)F)sc3c2CCCCC3)cc1 | -0.3% | 35.6
COc1cccc(-n2c(=O)c3sc4ccccc4c3n(CC(=O)Nc3ccccc3OC)c2=O)c1 | 3.8% | 25.4
COc1ccc2c(c1)CCc1c(C(=O)Nc3c(C)nn(Cc4ccccc4C)c3C)noc1-2 | -5.6% | 16.1
CC(C)c1ccc(NC(=O)C2CCCN(S(=O)(=O)c3cccc4nsnc34)C2)cc1 (stereo not drawn) | -3.6% | 15.2
CC(C)c1ccc(N2C(=O)CSC23C(=O)N(Cc2cccc(F)c2)c2ccccc23)cc1 (stereo not drawn) | -4.3% | 2.9
Cc1ccc(OCC(=O)Nc2nonc2-c2ccc(C)c(C)c2)cc1C | 1.0% | 61.9
CCCC(=O)N1CCc2cc(OC)c(OC)cc2C1COc1ccc(C(=O)OC)cc1 (stereo not drawn) | -2.7% | 32.1
CN(Cc1ccc(F)cc1)S(=O)(=O)c1nnc(NC(=O)c2ccc(F)cc2)s1 | -12.7% | 10.1

Record cards (already shown). Values in the order: ClpP mod, TRPML1 blocker
Listed for `COc1cccc(-n2ccnc2SCC(=O)Nc2nc3ccc(C)cc3s2)c1` = -2.6%, ?
Listed for `COc1ccc(NC(=O)c2c(NC(=O)C(F)(F)F)sc3c2CCCCC3)cc1` = -0.3%, 35.6
Listed for `Cc1ccc(NC(=O)CN2C(=O)CC(c3ccc(C)c(C)c3)=Nc3ccccc32)cc1` = -1.4%, -4.7
Listed for `O=C1C(c2ccc(F)cc2)N(CCc2ccccc2)C(=O)CN1C1CCCCCC1` (stereo not drawn) = 0.3%, 4.4
Listed for `CCc1cccc(NC(=O)c2nc(-c3ccncc3)no2)c1` = -1.6%, 3.3

Next entries:
SMILES | ClpP mod | TRPML1 blocker
COc1cc(C(=O)Nc2cc(C)c(O)c(-c3nc4cc(Cl)ccc4o3)c2)cc(OC)c1OC | 0.7% | -6.3
CCOC(=O)c1c(NC(=O)/C=C/c2ccc(Cl)cc2)sc2c1CCC(C)C2 (stereo not drawn) | -1.3% | -5.7
Cc1cccc(NC(=O)c2ccc(F)c(S(=O)(=O)N3CCN(c4ccc(F)cc4)CC3)c2)c1 | -7.2% | -8.4
CCOc1ccccc1C(=O)Nc1ccc(S(=O)(=O)N(Cc2ccccc2)c2ccccc2)cc1 | 1.8% | 31.0
CCOC(=O)c1c(S(=O)(=O)N2CCCC(C(=O)N3CCN(c4cccc(C)c4C)CC3)C2)c(C)n(C)c1C (stereo not drawn) | 1.3% | -7.1
COc1cc(C(=O)OCc2cc(=O)n3ccsc3n2)cc(OC)c1OC | -8.4% | -18.6
Cc1cc(=O)n(CC(=O)Nc2ccc(Cl)c(Cl)c2)c(-n2nc(C)cc2C)n1 | -0.2% | 23.9
CCC(Cn1nnc2ccccc2c1=O)NC(=O)Nc1ccccc1Cl (stereo not drawn) | 0.7% | 1.4
Cc1ccc2c(c1)c(=O)c1ccccc1n2CCCC(=O)Nc1ccc(C)c(F)c1 | 3.8% | 29.9
COc1ccc(NS(=O)(=O)c2cc3c4c(c2)CC(=O)N4CCC3)cc1Cl | -1.2% | 5.0
COc1ccccc1NC(=O)N1CCC(CN2CCc3ccccc3C2)CC1 | 1.8% | 10.2
CCC(C)NC(=O)C1CCN(C(=O)c2cc3sccc3n2Cc2ccc(Cl)cc2)CC1 (stereo not drawn) | -2.3% | 8.9
COCCNC(=O)C1(C)CCCN(C(=O)c2c(F)ccc(C)c2F)C1 (stereo not drawn) | -0.7% | 31.6
CCOC(=O)C1CCN(C(=O)C2COc3ccccc3C2)CC1 (stereo not drawn) | -17.4% | 33.1
C=C1C(=O)[C@]23C[C@H]1CCC2[C@@]1(C)C(C[C@@H]3O)[C@](C)(C(=O)O)CC[C@@H]1O (stereo partly drawn) | 0.0% | -18.7
COc1cccc(CN2CCC(C(=O)NC(C)c3cccc4ccccc34)CC2)c1 (stereo not drawn) | -4.5% | 47.5
Cc1ccc(CNC(=O)c2cc3c(s2)-c2c(C)cccc2OC3)cc1 | 4.9% | 14.0
Cc1cc(C)c(NS(=O)(=O)c2ccc(-c3coc(C)n3)cc2)c(C)c1 | 0.3% | -18.0
COc1ccc2c(c1)sc1ncc(C(=O)NCc3ccc(OC(C)C)cc3)c(=O)n12 | -15.3% | -21.2
CCOc1ccc(C(=O)N2CCC(c3nc(-c4ccc(S(=O)(=O)N5CCCC5)cc4)no3)CC2)cc1 | -0.3% | -12.8

Some of the entries so far, with tabs.
SMILES	ClpP mod	TRPML1 blocker
CCOC(=O)c1c(NC(=O)/C=C/c2ccc(Cl)cc2)sc2c1CCC(C)C2 (stereo not drawn)	-1.3%	-5.7
Cc1cccc(NC(=O)c2ccc(F)c(S(=O)(=O)N3CCN(c4ccc(F)cc4)CC3)c2)c1	-7.2%	-8.4
CCOc1ccccc1C(=O)Nc1ccc(S(=O)(=O)N(Cc2ccccc2)c2ccccc2)cc1	1.8%	31.0

Continued:
SMILES | ClpP mod | TRPML1 blocker
CC(=O)N1CCc2c(sc3c2c(=O)n(-c2ccccc2)c(=O)n3CC(=O)Nc2ccccc2C)C1 | 0.9% | 8.4
O=C(Nc1cccc(F)c1)c1ccc(-c2ccccc2)s1 | -16.5% | 2.9
COc1ccccc1CCNC(=O)CCc1c(C)c2cc3c(C)c(C)oc3cc2oc1=O | ? | -2.5
COCCNC(=O)CCCn1c(=O)[nH]c2ccsc2c1=O | -1.7% | -4.8
CN(C(=O)CSc1nc2ccccc2n1CC(=O)N(C)c1ccc(F)cc1)c1ccccc1 | 1.6% | -16.6
COc1ccc(NC(=O)c2c(NC(=O)c3cccc(C)c3)sc3c2CCCC3)cc1 | -4.2% | 30.2
Cn1c(C(=O)NCc2cccc(F)c2)cc2cc(S(=O)(=O)N3CCCCC3)ccc21 | ? | -12.4
Cc1ccc(C)c(N2CCN(C(=O)c3noc4c3CCCCC4)CC2)c1 | 2.2% | 2.5
COc1cccc(C(C)(O)c2nc(-c3ccccc3OC)cs2)c1 (stereo not drawn) | -0.8% | -26.5
Cc1cc(NS(=O)(=O)c2ccc(NC(=O)c3ccccc3F)cc2)nc(C)n1 | -1.2% | -15.0
CCn1cc(C2N3CC4(CC)CN2CC(CC)(C3)C4=O)c2ccccc21 (stereo not drawn) | 0.7% | 63.9
CCc1ccc(C(O)c2ncc(-c3cccc(C)c3)[nH]2)cc1 (stereo not drawn) | -1.7% | 7.6
COc1ccc(-c2ccc(CNCCCSc3nnnn3C)o2)cc1Cl | -0.2% | 0.7
COc1ccccc1-c1nc2c(c(SCc3cccc(Cl)c3)n1)Cc1c(CO)cnc(C)c1O2 | -4.4% | -13.8
CCc1ccc(S(=O)(=O)c2nnn3c2nc(N2CCCC(C)C2)c2cc(Cl)ccc23)cc1 (stereo not drawn) | ? | -6.3
COc1ccc(CCNC(=O)Cn2cc(C(=O)c3ccc(F)cc3)c(=O)c3ccc(C)nc32)cc1OC | 2.5% | -11.8
CCOC(=O)c1ccc(NC2=CC(c3ccc(O)c(OCC)c3)N(c3ccc(C(=O)OCC)cc3)C2=O)cc1 (stereo not drawn) | -2.6% | 27.9
CCOC(=O)C1CCCN(S(=O)(=O)c2cc(-c3cc(C)no3)ccc2C)C1 (stereo not drawn) | 1.1% | ?
CC(=O)c1cc(-c2ccccc2)n(CCC(=O)NC(C)c2ccccc2)c1C (stereo not drawn) | 0.2% | 11.3
Cc1ccc(OCC(=O)Nc2ccccc2OCc2cc(=O)n3ccccc3n2)cc1C | -5.6% | 22.6
CCC(C)n1c(=N)c(C(=O)NC2CCCC2)cc2c(=O)n3ccccc3nc21 (stereo not drawn) | 3.5% | 12.3
O=C(NCCc1ccc(Cl)cc1)c1ccc(CS(=O)(=O)Cc2ccccc2F)o1 | 0.8% | -4.7
Cc1ccccc1CN1C(=O)c2ccccc2Sc2ccc(C(=O)NC(C)c3ccccc3)cc21 (stereo not drawn) | -4.4% | 60.3
Cc1ccc2c(c1)N(C(=O)C1CCN(S(=O)(=O)c3c(C)noc3/C=C/c3ccccc3F)CC1)CCO2 | ? | 18.5
